ALR inh = blocks human ALR sulfhydryl oxidase activity; P55789; purified ALR, DTT oxidation, H2O2 HRP-luminol luminescence; inhibition, % (concentration not given with the values); 290,000 compounds, 3.8% hits; AID 485317;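 active = mean and each replicate at 75% or more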;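 note: stock transfer was 7.5 nL into about 7.5 µL; 0% = neutral wells and 100% = wells with inactivated enzyme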
Target sequence (P55789 whole entry, looked up): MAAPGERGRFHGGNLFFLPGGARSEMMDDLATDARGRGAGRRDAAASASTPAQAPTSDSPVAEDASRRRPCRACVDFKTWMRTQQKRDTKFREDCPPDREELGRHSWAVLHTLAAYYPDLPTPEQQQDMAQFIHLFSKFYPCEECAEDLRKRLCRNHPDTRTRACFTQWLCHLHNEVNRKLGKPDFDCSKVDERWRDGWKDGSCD
Beta2AR agonist = human beta-2 adrenergic receptor agonism by FAP. P07550. Am2.2-beta2AR cells, FAP receptor internalization, flow cytometry; reference of the scale not given here. response, % (concentration not given with the values). 340,000 compounds, 0.43% hits;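 active = response above a set limit, near 3 SD of response in nonfluorescent compounds, cut at about 42% in these data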;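 note: stock transfer was 100 nL into about 11 µL; a reference agonist was the positive control; negative values mostly stem from fluorescent compounds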
Ecoli rRNA inh = inhibitors of bacterial rRNA selective over humanized ribosomes | E. coli WT GFP vs humanized-ribosome RFP mutants, fluorescence, 24 h; stronger effect = lower value; DMSO median 0, no signal -100 | GFP signal change (wild-type ribosome), % (test concentration not listed) | 350,000 compounds, 1.6% hits;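 active = significant combined selectivity score with lowered wild-type GFP, culture density cut under 30%, mutant RFP and density less affected; inactive = any of these conditions unmet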; note: one replicate is shown; some compounds called inactive have numbers as strong as hits
Ecoli growth = E. coli growth inhibition; 330,000 compounds, 0.21% hits; OD600 absorbance (test concentration not listed); AID 1053175; Escherichia coli growth, OD600, 23 h; stronger effect = lower value;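 active = OD600 absorbance below the run mean of sample wells minus 3.6 SD, in any replicate, cut at about 0.56 in these data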;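 note: stock transfer was 300 nL into about 60 µL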
UCH37 inh = inhibitors of human deubiquitinating enzyme UCH37. Q9Y5K5. purified proteasome/UCH37, Ub-AMC cleavage fluorescence. inhibition, % (concentration not given with the values). 330,000 compounds, 0.33% hits;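 active = mean of two replicates above 20%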;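 note: 0% = compound-free wells with enzyme and 100% = wells lacking proteasome; stock transfer was 100 nL into about 20 µL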
Target sequence (Q9Y5K5 whole entry, looked up): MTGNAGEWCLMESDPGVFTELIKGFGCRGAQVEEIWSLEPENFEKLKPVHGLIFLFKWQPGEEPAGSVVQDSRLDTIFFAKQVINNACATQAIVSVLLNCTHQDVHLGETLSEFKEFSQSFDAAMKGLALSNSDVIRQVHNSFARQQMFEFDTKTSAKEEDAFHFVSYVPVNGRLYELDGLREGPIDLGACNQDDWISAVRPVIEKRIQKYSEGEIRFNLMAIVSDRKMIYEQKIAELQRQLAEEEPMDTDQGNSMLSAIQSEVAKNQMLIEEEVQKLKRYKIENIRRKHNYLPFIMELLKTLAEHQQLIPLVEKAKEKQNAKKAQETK
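Reagent: Ub-AMC substrate; assay system: Proteasome-associated human UCH37 deubiquitinase; controls: no-proteasome and no-compound wells; read-out: % inhibition of Ub-AMC cleavage fluorescence; timing: 30 min preincubation with enzyme, 25 min cleavage at room temperature; signal: AMC fluorescence from Ub-AMC cleavage, excitation 355 nm, emission 460 nm; buffer or medium: Tris-HCl pH 7.4 plus ovalbumin, ATP-MgCl2, DTT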
HNF4A DNA FP = change in binding of human HNF4 alpha to DNA | activity change, % at 10 µM | HNF4a-FITC DNA binding, fluorescence polarization, 1 h | 360,000 compounds, 0.3% hits | AID 1224865; in the data active = activity change above about 30%, passing the limit was not always enough;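 note: controls were the assay level and a saturating level of protein; the project sought stronger binding though the title names inhibitors; some compounds called inactive have numbers as strong as hits; positive values seem to mean higher polarization but the record does not say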
Target sequence (P41235 whole entry, looked up): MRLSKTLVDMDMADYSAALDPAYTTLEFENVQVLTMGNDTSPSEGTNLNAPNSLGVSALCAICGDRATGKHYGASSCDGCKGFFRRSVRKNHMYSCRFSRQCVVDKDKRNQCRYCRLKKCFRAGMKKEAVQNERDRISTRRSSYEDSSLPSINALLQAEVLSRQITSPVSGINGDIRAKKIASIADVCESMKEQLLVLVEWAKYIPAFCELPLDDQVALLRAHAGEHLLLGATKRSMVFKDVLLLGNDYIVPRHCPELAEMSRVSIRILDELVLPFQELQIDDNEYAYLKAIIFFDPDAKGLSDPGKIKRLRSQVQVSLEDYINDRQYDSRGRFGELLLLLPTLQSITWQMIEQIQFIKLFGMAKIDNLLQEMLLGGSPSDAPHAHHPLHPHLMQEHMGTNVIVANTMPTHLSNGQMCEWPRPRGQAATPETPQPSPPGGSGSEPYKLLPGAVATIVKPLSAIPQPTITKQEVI
FGF22 binding = binders of recombinant human FGF22 by thermal shift | 340,000 compounds, 1.5% hits | calls only at 9.99 µM | SYPRO orange fluorescence; percent of sucrose octasulfate shift, DMSO zero | AID 651658 | Q9HCT0;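 active = melting point raised past a set limit in the mean and every replicate; three in four hits are not shown here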
Ecoli rRNA inh OD600 = recorded beside Ecoli rRNA inh, whose call it bears; OD600 change, %; measured here: OD600 growth;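 optical density of the mix in the first replicate; 0 = DMSO median and -100 = no signal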
Ecoli rRNA inh RFP = second read-out of Ecoli rRNA inh, no call of its own (marks repeat the call); RFP signal change, %; measured here: RFP humanized mutant strains;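 first replicate; 0 = DMSO median and -100 = no signal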
Active calls of the source: *; i = inactive; / = not tested or not shown. These rows are one share of the data; rates above refer to the full screens.

SMILES | ALR inh | Beta2AR agonist | Ecoli rRNA inh | Ecoli rRNA inh OD600 | Ecoli rRNA inh RFP | Ecoli growth | UCH37 inh | HNF4A DNA FP | FGF22 binding
CSc1oc(-c2ccco2)nc1S(=O)(=O)c1ccc(Br)cc1 | -27 | 9 | 4 | -16 | 2.7 | 0.72 | 2.7 | 8.1 | i
CCN(C(=O)CSc1nc2ccccc2n1CC)C1CCS(=O)(=O)C1 (stereo not drawn) | 9 | 7 | 22 | 12 | 1.6 | 0.72 | 2.9 | 1.0 | i
CCOC(=O)CC1=NS(=O)(=O)c2ccccc2N1 | 38 | 4 | / | / | / | 0.71 | 6.1 | -1.4 | /
CC(C)CNC(=O)c1cccc(NC(=O)c2ccc(Cl)c([N+](=O)[O-])c2)c1 | -5 | 1 | 3 | -2 | -1.1 | 0.69 | -1.4 | 0.0 | i
Cc1cc(N2CC(C(=O)NCc3cccs3)CC2=O)ccc1C(C)C (stereo not drawn) | 4 | -2 | / | / | / | 0.77 | 5.5 | 0.7 | /
COc1ccc(CNC(=O)CSc2nc(SC)ns2)cc1 | -4 | 10 | 0 | -8 | 2.3 | 0.67 | 1.7 | 3.9 | i
COc1ccc(NS(=O)(=O)CC(C)C)c(OC)c1 | -41 | -3 | / | / | / | 0.72 | 3.1 | -0.9 | /
C=CCNC(=S)N1CCN(CCN=CC2=C(O)CC(c3cccs3)CC2=O)CC1 (stereo not drawn) | -5 | -5 | / | / | / | 0.7 | 1.5 | 0.3 | /
COC(=O)CN1C2(C#N)CCCCC2CC2CCCCC21C#N (stereo not drawn) | 14 | -4 | / | / | / | 0.76 | 6.6 | 1.8 | /
CN1CCN(C(=O)c2cc3sc4ccccc4c3s2)CC1 | -24 | -3 | -24* | -4.9* | -1.0* | 0.61 | -3.3 | -1.6 | i
CCN1Cc2c(cc(OC)c(OC)c2OC)-c2ccccc2S1(=O)=O | / | -3 | 0 | -1 | 3.5 | 0.69 | 3.0 | 0.1 | i
O=C(C1=C[C@H](c2coc3ccccc3c2=O)C[C@H](OCCCCO)O1)N1CCN(Cc2ccc3c(c2)OCO3)CC1 | 2 | -1 | -7 | -6 | -12 | / | -0.4 | 4.8 | i
Cc1c(-n2c(=O)n(Cc3ccccc3)c(=O)c3[nH]cnc32)cccc1S(C)=O (stereo not drawn) | -2 | 5 | 9 | 17 | -0.3 | 0.69 | 2.4 | 3.9 | i
CN(CC(=O)NC1CCN(Cc2ccccc2)CC1)S(=O)(=O)c1ccc(Cl)s1 | -2 | -1 | 22 | 10 | 4.0 | 0.71 | 4.5 | 1.7 | i
COc1ccc(-c2nc(CS(=O)CC(=O)NCCN3CCCCC3C)c(C)o2)cc1OC (stereo not drawn) | 100* | -8 | 7 | 17 | -0.1 | 0.7 | 3.4 | -3.5 | i
Cn1c(/C(C#N)=C(\O)c2ccc([N+](=O)[O-])s2)nc2ccccc21 | -7 | -12 | 10 | 10 | -1.6 | 0.69 | 3.0 | 2.8 | i
O=C(CSc1nc2ccccc2o1)NC(=O)NCc1ccco1 | -1 | 1 | / | / | / | 0.63 | 1.3 | -3.1 | /
CCc1ccc(NC(=O)C2CCN(S(=O)(=O)c3c(C)noc3C)CC2)cc1 | -2 | 4 | 5 | 5 | 0.9 | 0.72 | 3.4 | 0.3 | i
CCOC(=O)C1(C)CCCN(C(=O)c2c(-c3ccccc3)noc2C)C1 (stereo not drawn) | / | / | 6 | 2 | -0.6 | / | / | 2.1 | i
O=C(Nc1ccc(C(=O)N2CCCC2)cc1)c1cc(F)c(F)cc1Cl | / | / | 10 | 11 | -0.9 | / | / | 2.3 | i
CC1=CC(=O)CC2C1(C)CCC(C)C2(C)CCC(C)CC(=O)O (stereo not drawn) | 5 | 4 | 0 | 3 | -4.0 | 0.74 | -2.0 | 2.0 | i
Cc1ccc(OCC(=O)N(Cc2ccccc2)C2CCS(=O)(=O)C2)c([N+](=O)[O-])n1 (stereo not drawn) | -12 | -10 | / | / | / | 0.68 | 4.9 | -4.6 | i
Cn1c(SCc2ccccc2Cl)nc2ccccc21 | -10 | -13 | / | / | / | 0.68 | 0.7 | -1.9 | /
CC1CCCC(NC(=O)COC(=O)c2cc3ccccc3oc2=O)C1C (stereo not drawn) | / | -13 | / | / | / | 0.71 | -9.7 | 4.5 | i
O=C(CSc1nnc(-c2ccncc2)n1CCc1ccccc1)NCc1ccccc1 | -5 | -3 | / | / | / | 0.68 | 4.4 | -6.6 | /
SMILES | ALR inh | Beta2AR agonist | Ecoli rRNA inh | Ecoli rRNA inh OD600 | Ecoli rRNA inh RFP | Ecoli growth | UCH37 inh | HNF4A DNA FP | FGF22 binding
O=C(/C=C/c1ccc(Br)cc1)c1ccc(NC2=NCCCS2)cc1 | 2 | 33 | -13 | -13 | 8.5 | 0.58 | 5.0 | 0.3 | i
O=C1CCC(C(=O)Nc2cccc(C(F)(F)F)c2)N1 (stereo not drawn) | 0 | 1 | 1 | 8 | -1.1 | 0.67 | 1.1 | -0.1 | i
Cc1ccc(C(=O)N2CCC3(CC2)NCCc2[nH]cnc23)cc1 | -2 | -4 | 4 | 10 | -2.6 | 0.71 | 0.6 | 5.3 | i
Cc1c(NS(=O)(=O)c2cccc(C(=O)NCc3ccccc3Cl)c2)c(=O)n(-c2ccccc2)n1C | / | 3 | -8 | -17 | -0.9 | 0.7 | 3.5 | -3.6 | i
Cc1c(Cl)c([N+](=O)[O-])nn1Cc1ccc(C(=O)N/N=C\c2ccccn2)o1 | 50 | -11 | / | / | / | / | / | -3.5 | /
CCOc1ccccc1OCC(=O)Nc1ccc(S(=O)(=O)Nc2ncccn2)cc1 | 25 | 9 | / | / | / | 0.68 | -0.4 | -0.4 | /
Cc1c(C#N)c2ncnc(-c3ccccc3)c2n1-c1ccccc1 | -6 | 2 | / | / | / | 0.69 | -0.1 | -1.2 | /
COc1ccc(NC(=S)Nc2cccc(S(=O)(=O)N3CCCCC3)c2)cc1 | 11 | 10 | / | / | / | 0.65 | 3.8 | -3.3 | /
COc1cccc(/C=N/Nc2nn3cnnc3c3ccccc23)c1 | -1 | 4 | / | / | / | / | / | -4.5 | /
CCCCCOCC(O)CCC(=O)NN (stereo not drawn) | -14 | 5 | / | / | / | 0.71 | -0.5 | 0.9 | /
CCc1cccc(C)c1NC(=O)COC(=O)C1CCN(S(=O)(=O)c2ccccc2)CC1 | -6 | -1 | 9 | 16 | 1.0 | 0.68 | 0.0 | 2.3 | i
Cc1ccc(C(=O)NC2CC(C)(C)NC(C)(C)C2)cc1Cl | -14 | 1 | 3 | 12 | 7.1 | 0.69 | 0.8 | 2.0 | i
Cc1ccc(/C=C2\SC(=S)N(CCC(=O)N3CCCCC3)C2=O)cc1 | / | 2 | 0 | -3 | -4.2 | 0.69 | 7.3 | 0.0 | i
COC(=O)CN(C)C(=O)c1cccc(OC2CCN(S(=O)(=O)N(C)C)CC2)c1 | 4 | -1 | 7 | -6 | 2.2 | 0.71 | 5.9 | -5.0 | i
CCC1(CC)C(=O)NC(=O)NC1=Nc1ccccc1 | / | 3 | 24 | 2 | 0.8 | 0.62 | 0.4 | 1.9 | /
c1ccc(CNc2nc(Oc3ccncc3)c3sccc3n2)cc1 | / | / | 2 | 13 | 0.4 | / | / | 2.0 | i
CCC(C)C(NC=C1C(=O)OC(C)(C)OC1=O)C(=O)O (stereo not drawn) | -2 | -7 | / | / | / | 0.68 | 0.9 | 2.3 | /
CN(Cc1ccccc1)C(=O)c1cc(=O)[nH]c2ccccc12 | -7 | -7 | 0 | 9 | 1.4 | 0.67 | -13 | -2.6 | i
COc1cc(NC(C)=O)c2ncccc2c1[N+](=O)[O-] | -22 | 0 | 9 | 3 | 4.2 | 0.66 | 3.3 | -3.5 | i
CN1CCc2nc(NC(=O)COc3ccc(C#N)cc3)sc2C1 | -4 | -1 | 4 | 3 | -3.9 | 0.66 | -3.1 | 3.4 | i
CC(C)c1onc(C(=O)Nc2cccnc2Cl)c1[N+](=O)[O-] | 16 | 0 | 6 | 0 | -3.0 | 0.66 | 0.4 | 1.4 | i
Cc1cc2ncc(S(C)(=O)=O)c(N)n2n1 | / | 1 | 8 | 7 | -0.8 | 0.69 | 4.7 | 0.6 | i
Cc1ccc(CN2CCN(Cc3ccc(C)s3)CC2CCO)cc1 (stereo not drawn) | -5 | -2 | 11 | 20 | -0.2 | 0.64 | 2.8 | -4.1 | i
CCOC(=O)c1c(NC(=O)COC(=O)/C=C/c2ccccc2)sc(C(=O)NC)c1C | 2 | -9 | 6 | 12 | -0.1 | 0.71 | 0.1 | 0.7 | i
CCO[C@H]1OC(C(N)=O)=C[C@@H](c2ccc(Br)cc2)[C@@H]1CCCO | / | -7 | -2 | -9 | -0.4 | / | 0.6 | 2.9 | i
SMILES | ALR inh | Beta2AR agonist | Ecoli rRNA inh | Ecoli rRNA inh OD600 | Ecoli rRNA inh RFP | Ecoli growth | UCH37 inh | HNF4A DNA FP | FGF22 binding
COc1cccc(C(C)(O)c2nc(-c3cccc4cccnc34)cs2)c1 (stereo not drawn) | / | / | -41 | -73 | -15 | / | / | 1.9 | i
COc1ccc(S(=O)(=O)N2CCN(c3ccccc3)CC2)cc1 | 14 | 1 | -13 | -18 | -2.2 | 0.67 | -0.5 | -3.0 | /
COc1ccccc1NS(=O)(=O)c1cc(NC(=O)C2=NNC(=O)CC2)ccc1C | -2 | -3 | 2 | 6 | 0.2 | 0.7 | -9.3 | 3.5 | i
COc1ccccc1N1CCN(CCc2n[nH]c(=S)n2-c2ccccc2)CC1 | 97* | -3 | / | / | / | 0.7 | 5.9 | -1.4 | /
CCOC(=O)c1cnn(-c2nc(SC)nc3sc4c(c23)CCCC4)c1N | -26 | -18 | / | / | / | 0.73 | 0.2 | -0.8 | /
CCN(CC)c1ccc(C=C2C(=O)OC(c3ccccc3)OC2=O)cc1 (stereo not drawn) | 26 | 2 | 16 | 14 | 21 | 0.67 | 5.6 | 25 | i
Cc1occc1-c1nnc(SCC(=O)Nc2ccccc2)n1CCc1ccccc1 | 4 | -9 | / | / | / | 0.69 | 5.1 | -0.6 | /
CC(=O)Nc1cccc(/C(C)=N/N2C(C)CCCC2C)c1 (stereo not drawn) | / | -2 | -4 | -3 | 1.5 | / | / | -0.3 | i
CCCCCCc1nc2ccccc2c(=O)n1NC(=O)c1c(O)c2c(n(CC(C)C)c1=O)CCCC2 | / | 7 | / | / | / | 0.74 | -0.5 | 0.9 | /

From PubChem BioAssay
